Screening data as filed in PubChem BioAssay.
BJeLR lethal: kills HRASV12-expressing BJeLR cells; BJeLR (HRASV12) viability, CellTiter-Glo ATP luminescence, 48 h; reference of the scale not given here; inhibition, % (no concentration beside the values); actives 0.17% (n = 300,000);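 active = replicate mean above 50%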;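 note: 50 nL library stock added to about 25 µL; numbers are from one replicate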
Mtb hypoxia inh: Mtb hypoxia fluorescent reporter inhibition; M. tuberculosis hypoxia-regulated fluorescent reporter, fluorescence; fluorescence inhibition, % (test concentration not listed); actives 0.1% (n = 300,000); AID 1159583;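 active = 35 to 45% if threefold the growth effect, above 45% if 1.5-fold the growth effect; inactive = the rest, general growth blockers included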;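 note: wells of about 50 µL received 100 nL stock; 0% = vehicle wells and 100% = reference inhibitor wells; whole bacteria with a GFP reporter of the hypoxia response; strong numbers were not always called active; many hits fall short of the cut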
RN4220 kill: kills Staphylococcus aureus RN4220. inhibition, % (concentration not given with the values). actives 0.33% (n = 330,000). AID 1259311. S. aureus RN4220 growth, OD600, 16 h;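 active = z-score of -3 or lower and OD600 up to 0.18 on both plates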;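 note: plate controls were untreated cells for no effect and reference antibiotic for full effect; stock transfer was 100 nL into about 80 µL; one replicate is shown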
PrP UTR inh: suppresses PrP 5' UTR mRNA reporter expression. cell-based PrP 5' UTR mRNA reporter, plate reader. inhibition, % (test concentration not listed). actives 0.35% (n = 340,000);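 active = every replicate at 50% or more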;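 note: 0 = median of the neutral control wells; tested in H4 reporter cells; numbers are from one replicate; inactives centre near -14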
ugtP null kill: kills S. aureus RN4220 lacking UgtP | S. aureus RN4220 ugtP deletion, OD600 growth, 16 h; some inactives read as strong as hits | actives 0.54% (n = 330,000) | growth inhibition, % (test concentration not listed) | AID 1259309;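 active = z-score under -3 and OD600 up to 0.15 on both plates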;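 note: plate controls were untreated wells for no effect and antibiotic for full effect; wells of about 80 µL received 100 nL stock; the first replicate is given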
Bead autofluor: flagged as autofluorescent in microsphere protease counterscreen. compound autofluorescence counterscreen, microsphere flow cytometry; active compounds read high. fluorescence intensity (test concentration not listed). actives 3.1% (n = 360,000);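 active = at least 3 SD above the mean of all compounds, about 16000 in these data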;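 note: 100 nL of 1 mM stock went into each well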
Mtb hypoxia inh growth: second read-out of Mtb hypoxia inh, no call of its own (marks repeat the call); growth inhibition, %; measured here: M. tuberculosis growth (absorbance);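 0% = vehicle and 100% = reference antibiotic; read after six days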
Starred values were filed as active, the others as inactive; . = no result given.

Every second line gives: BJeLR lethal	Mtb hypoxia inh	Mtb hypoxia inh growth	RN4220 kill	PrP UTR inh	ugtP null kill	Bead autofluor
O=C1C=C(c2cccc(O)c2)CCC1
 : -11	5	2	6.5	-12	-8	3479
COc1ccc(CC(NC(C)=O)C(=O)NC2CCN(c3nc(C)cc(C)c3C#N)CC2)cc1OC (stereo not drawn)
 : -14	-1	1	5.6	-71	-3	4068
Cc1nc(-c2cccc3ccccc23)ccc1C(=O)O
 : -6	8	8	1.8	-11	0	2020
Nc1nonc1-n1nnc(C(=O)N/N=C/c2ccccc2F)c1CN1CCc2ccccc21
 : 1	.	.	.	-19	.	5449
Cc1ccc(S(=O)(=O)N2CCOCC2)cc1C(=O)Nc1cccc(S(=O)(=O)N2CCCC2)c1
 : 5	4	5	6.8	-13	-1	5142
CCN(CC)CCCNCC(=O)Nc1ccc(OC)c(Cl)c1
 : -8	14	6	2.9	.	4	.
CCN(CC)S(=O)(=O)c1ccc(N2CCCCC2)c(NC(=O)/C=C/c2cc(OC)c(OC)c(OC)c2)c1
 : -19	9	5	7.0	-25	21	2546
COc1ccc2nc(NC(=O)c3sc4nc(C)cc(C)c4c3N)sc2c1
 : -6	0	-7	3.8	-22	12	4903
COc1ccc(/C=C/C(=O)Nc2cc(F)ccc2C)cc1S(=O)(=O)N1CCOCC1
 : 5	2	10	8.6	-10	2	4514
O=C(c1ccc2c(c1)N(Cc1ccccc1)C(=O)c1ccccc1S2)N1CCCC1
 : 1	-2	1	3.7	-32	-1	21624*
O=C1CC(N2CCN(c3nc4ccccc4s3)CC2)C(=O)N1Cc1cccs1 (stereo not drawn)
 : -1	.	.	-4.4	-18	2	3628
CCc1ccc2c(c1)C1(NN=C(c3ccc(C)cc3)S1)C(=O)N2 (stereo not drawn)
 : 4	.	.	46	13	44	3676
CCOC(=O)Cn1c(=N)n(Cc2ccccc2F)c2ccccc21
 : .	.	.	0.4	9	8	3065
Cc1cccc(-n2c(O)c(C=NC3CCS(=O)(=O)C3)c3ccccc3c2=O)c1C (stereo not drawn)
 : -8	10	11	0.6	-33	4	3026
CC1=CC(C)(C)Nc2ccc(OC(=O)c3cccnc3)cc21
 : 1	4	14	3.4	-15	-1	9662
O=C(O)c1ccc(Cn2nnc3sc4c(c3c2=O)CCCC4)cc1
 : 0	4	9	1.5	-18	-5	4151
O=C(Cn1cnc2ccccc21)N/N=C/C(Br)=C/c1ccccc1
 : -1	.	.	.	-19	.	2452
COc1ccc(NC2CCCN(C(=O)c3csc(C)n3)C2)cc1 (stereo not drawn)
 : -2	8	12	4.1	1	-3	4416
C=CCNC(=O)COC(=O)c1ccccc1C(=O)N(C)C1CCCCC1
 : -2	-3	-8	2.9	-5	-1	2120
CSc1ncccc1C(=O)NCC(=O)Nc1ccc(F)c(F)c1
 : -1	7	3	4.1	-4	9	3744
O=C(Nc1ccccc1Br)C1CCC(=O)N1Cc1ccccc1Cl (stereo not drawn)
 : 1	5	6	4.6	-12	-1	15844
COc1ccc(NC(C)=O)cc1C#N
 : 5	10	3	6.2	-22	6	4638
Cc1nc2ccccc2n1N=Cc1cccnc1
 : .	10	2	2.5	.	10	.
NC(=NCCc1ccccc1)NS(=O)(=O)c1ccc(F)cc1
 : -5	-6	0	-0.1	-8	0	2597
O=[N+]([O-])c1cccc(NN=Cc2cc([N+](=O)[O-])ccc2O)c1
 : .	6	5	53	.	22	.
CCOC(=O)c1ccccc1NC(=O)c1cccc2c1C(=O)N(C1CCN(C(=O)OCC)CC1)C2
 : -10	10	10	-11	-21	-3	5755
CCC1CCCCN1CCCNC(=O)CCC(=O)N1CC(C)Oc2ccccc21 (stereo not drawn)
 : 13	2	-1	2.6	-9	1	4752
CC(=O)NCCC(=O)Nc1nc(-c2ccccc2Cl)cs1
 : -5	1	2	-1.5	-13	-6	4682
Cc1noc(C)c1COc1ccc(C(=O)NCC(c2c(F)cccc2Cl)N(C)C)cc1 (stereo not drawn)
 : .	3	9	1.7	-14	4	5663
O=C(CSc1nnc(CNC(=O)c2ccccc2)o1)Nc1nccs1
 : 6	0	-4	0.8	-1	4	5810
O=S(=O)(Nn1cnnc1)c1ccc(F)cc1
 : -7	-1	4	3.8	-17	7	4243
CC(C)C[C@@H](COc1ccccc1)N1CCN(Cc2ccccc2)CCC1=O
 : 2	3	1	-7.4	-3	-14	.
O=C1/C(=C/c2ccncc2)Oc2cc(OS(=O)(=O)c3ccccc3)ccc21
 : 6	5	-1	4.3	-6	-10	3928
CN(C)C1(CNC(=O)C2CCN(S(=O)(=O)c3c(Cl)cccc3Cl)CC2)CCCCC1
 : 8	6	-1	2.0	-7	4	5072
O=C(NNc1ccc(-c2csnn2)cc1)c1cc(Cl)cc(Cl)c1
 : -7	20	1	-2.8	.	4	.
Clc1ccc(N2CCN(Cc3ccc(Br)o3)CC2)cc1
 : -14	1	3	12	6	8	3228
NC(=O)C1CCN(C(=O)CCNS(=O)(=O)c2cc(Br)cnc2N)CC1
 : 2	0	9	0.5	-6	3	5732
Cc1cc(C)n(CCC(=O)N=Nc2c(O)[nH]c3ccccc23)n1
 : -5	-1	4	0.8	6	6	4216
CC(=O)c1cccc(NC(=O)c2oc(C)nc2C)c1
 : -6	3	5	0.0	-24	4	24179*
Cc1nn(-c2ccccc2)nc1C(=O)Nc1nnc(C(F)(F)F)s1
 : -11	1	5	79	-2	86*	3744
COc1cc(C=C2C(=O)NC(=O)NC2=O)ccc1O
 : 4	.	.	.	-7	.	3482
Cc1cc(N2CCOCC2)nc(SCC(=O)c2ccc(Cl)cc2)n1
 : 5	6	9	3.2	-16	-15	3040
Cc1ccc(C=NN(Cc2ccccc2)c2ccccc2)o1
 : .	4	3	-16	.	42	.
CN(NS(=O)(=O)c1ccccc1)c1nc2ccccc2nc1C(F)(F)F
 : 15	.	.	8.4	-22	4	4057
O=C(COc1cccc2ccccc12)NN=Cc1ccc(Sc2nc3ccccc3s2)o1
 : .	3	4	4.9	.	-16	.
O=C1c2ccccc2C(=Nc2ccccc2)C1c1cccc(Br)c1 (stereo not drawn)
 : -11	-3	1	-2.3	-13	-30	21729*
Cc1ccc(S(=O)(=O)N2CCOCC2)cc1C(=O)NC1CCCCCC1
 : -3	.	.	.	-15	.	6155
CC(=O)N1c2ccccc2NC2=C(C(=O)CC(C)(C)C2)C1c1cccn1C (stereo not drawn)
 : -7	11	4	4.7	-10	3	4367
CN(C)CCCNC(=O)c1cc(Br)ccc1Cl
 : -6	4	7	2.2	-20	2	5946
Cc1csc(=N)n1-c1ccc(Cl)cc1
 : -4	3	-9	-5.6	-107	-7	10246
NC(=O)C1CCCN(Cc2c(C(=O)N3CCc4ccccc4C3)nc3ccc(Cl)cn23)C1 (stereo not drawn)
 : 3	-2	-4	4.5	-16	9	5073
CCCCNC(=S)N1CCN(C(c2ccccc2)c2ccccc2)CC1
 : -6	-17	10	-11	-32	-8	4595
CC(C)(C)c1ccc(C(=O)NNc2cc(N3CCOCC3)nc(N3CCOCC3)n2)cc1
 : 0	1	8	4.0	-6	14	4493
COc1ccc(CNC(=O)COC(=O)Cc2ccc(Cl)cc2Cl)cc1
 : -8	9	11	2.6	-21	2	2461
Cc1ccc(C)c(S(=O)(=O)N2CCCOC2CNC(=O)C(=O)NC2CC2)c1 (stereo not drawn)
 : -4	9	0	4.9	-24	-3	6422
CCc1ccccc1NC(=O)CSc1nnc([C@@H]2CCCN2C(=O)OC(C)(C)C)o1
 : -4	4	10	-0.5	-2	-4	4662
COc1ccc2c(c1)N(S(=O)(=O)c1ccccc1)CCC2=O
 : 6	9	3	6.5	-22	3	2403
CCNC(=O)NC(=O)COc1ccccc1C#N
 : 6	3	-8	1.8	-83	3	8068
Cc1nc(Nc2ccccc2)c2oc3ccc(Cl)cc3c2n1
 : -2	0	-2	-1.9	-19	-4	4056
COc1cc(OC)c(OC)cc1CN1CCN(Cc2ccc(SC)cc2)CC1
 : -8	4	6	-1.2	-32	-8	4203

An excerpt from above in order of SMILES length, smallest number first:
Every second line gives: BJeLR lethal	Mtb hypoxia inh	Mtb hypoxia inh growth	RN4220 kill	PrP UTR inh	ugtP null kill	Bead autofluor
Cc1csc(=N)n1-c1ccc(Cl)cc1
 : -4	3	-9	-5.6	-107	-7	10246
CN(C)CCCNC(=O)c1cc(Br)ccc1Cl
 : -6	4	7	2.2	-20	2	5946
Cc1ccc(C=NN(Cc2ccccc2)c2ccccc2)o1
 : .	4	3	-16	.	42	.
Clc1ccc(N2CCN(Cc3ccc(Br)o3)CC2)cc1
 : -14	1	3	12	6	8	3228
COc1ccc2c(c1)N(S(=O)(=O)c1ccccc1)CCC2=O
 : 6	9	3	6.5	-22	3	2403
O=C(NNc1ccc(-c2csnn2)cc1)c1cc(Cl)cc(Cl)c1
 : -7	20	1	-2.8	.	4	.
Cc1nn(-c2ccccc2)nc1C(=O)Nc1nnc(C(F)(F)F)s1
 : -11	1	5	79	-2	86*	3744
Cc1ccc(S(=O)(=O)N2CCOCC2)cc1C(=O)NC1CCCCCC1
 : -3	.	.	.	-15	.	6155
NC(=O)C1CCN(C(=O)CCNS(=O)(=O)c2cc(Br)cnc2N)CC1
 : 2	0	9	0.5	-6	3	5732
CC(=O)N1c2ccccc2NC2=C(C(=O)CC(C)(C)C2)C1c1cccn1C (stereo not drawn)
 : -7	11	4	4.7	-10	3	4367
CCc1ccccc1NC(=O)CSc1nnc([C@@H]2CCCN2C(=O)OC(C)(C)C)o1
 : -4	4	10	-0.5	-2	-4	4662
NC(=O)C1CCCN(Cc2c(C(=O)N3CCc4ccccc4C3)nc3ccc(Cl)cn23)C1 (stereo not drawn)
 : 3	-2	-4	4.5	-16	9	5073

New compounds follow
Every second line gives: BJeLR lethal	Mtb hypoxia inh	Mtb hypoxia inh growth	RN4220 kill	PrP UTR inh	ugtP null kill	Bead autofluor
Cc1ccc(S(=O)(=O)NCCc2nnc3ccc(SCC(=O)Nc4nc5ccccc5s4)nn23)cc1
 : -1	3	-2	2.8	.	0	.
O=C(CSc1nc2ccccc2c(=O)[nH]1)N1CCCCCC1
 : 7	-2	-3	4.7	-17	12	2850
COC(=O)c1cc(NC(=O)CSc2nc(C)cc(=O)[nH]2)cc(C(=O)OC)c1
 : -5	7	5	3.8	-23	1	13305
CCOC(=O)C1CCN(C(=O)C(=O)N2CCC(C(=O)OCC)CC2)CC1
 : 15	-2	8	3.7	10	3	5677
O=C(c1cn(-c2ccccc2)nc1-c1ccccc1)n1nnc2ccccc21
 : 13	.	.	0.2	3	2	4941
COc1ccc(C(=O)NCC(=O)OCC(=O)Nc2c(C)n(C)n(-c3ccccc3)c2=O)cc1
 : 14	8	7	9.5	-13	0	5463
COc1ccccc1N(C)S(=O)(=O)c1ccc(C(=O)OCC(N)=O)cc1
 : -7	2	-6	1.2	4	-4	4753
Oc1ccccc1N1CCN(CC(O)COCc2ccccc2Cl)CC1 (stereo not drawn)
 : -5	15	7	2.2	-36	9	3227
Cc1cc(NC(=O)c2cc(-c3cccs3)on2)no1
 : 3	2	2	3.7	-18	2	9976
CCC1Oc2ccccc2N(CC(=O)N2CCOCC2)C1=O (stereo not drawn)
 : 0	5	-4	2.2	-13	5	3380
COc1ccc(C(O)=C2C(=O)C(=O)N(c3nc(C)c(C)s3)C2c2ccco2)cc1 (stereo not drawn)
 : .	7	9	4.1	.	-10	.
CCOC(=O)C1CCN(Cc2cnc(Oc3ccc(C(C)(C)C)cc3)s2)CC1
 : -10	10	12	6.0	-17	4	21136*
O=C(Cn1cc([N+](=O)[O-])cn1)NCCc1nc2ccccc2[nH]1
 : 2	5	-5	7.1	-18	4	4391
O=C(CN1C(=O)CC(c2ccccc2)S(=O)(=O)c2ccccc21)NC1CCCC1 (stereo not drawn)
 : -6	-4	3	5.2	-18	5	4512
CC(=O)C1=C(O)C(=O)N(Cc2ccco2)C1c1ccc2c(c1)OCO2 (stereo not drawn)
 : 1	3	-7	3.2	-17	1	12843

Not a hit list; overall some 4% were active at least once.
